# Screening data from PubChem.
# Autofluor counter: counter-screen for toxin protease inhibitors: compound fluorescence. compound autofluorescence counterscreen, microsphere flow cytometry; hits give high values. fluorescence intensity (no concentration beside the values). 360,000 tested, 3.1% active. AID 624483;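 active means at least 3 SD above the mean of all compounds, about 16000 in these data; inconclusive means too few beads counted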;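 further: 100 nL of 1 mM stock went into each well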
# BJeLR viability: kills HRASV12-expressing BJeLR cells | BJeLR (HRASV12) viability, CellTiter-Glo ATP luminescence, 48 h; reference of the scale not given here | inhibition, % (concentration not given with the values) | 300,000 tested, 0.17% active;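 active means replicate mean above 50%; inconclusive means above 50% but judged a plate artefact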;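 further: 50 nL library stock added to about 25 µL; numbers are from one replicate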
# Mtb hypoxia rep: inhibitors of hypoxia-regulated fluorescent reporter in Mycobacterium tuberculosis. M. tuberculosis hypoxia-regulated fluorescent reporter, fluorescence. fluorescence inhibition, % (concentration not given with the values). 300,000 tested, 0.1% active. AID 1159583;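 active means 35 to 45% if threefold the growth effect, above 45% if 1.5-fold the growth effect; inactive means the rest, general growth blockers included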;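 further: wells of about 50 µL received 100 nL stock; 0% = vehicle wells and 100% = reference inhibitor wells; whole bacteria with a GFP reporter of the hypoxia response; strong numbers were not always called active; many hits fall short of the cut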
# ugtP null kill: compounds lethal to S. aureus RN4220 ugtP deletion mutant; growth inhibition, % (concentration not given with the values); 330,000 tested, 0.54% active; OD600 growth, 16 h; some inactives read as strong as hits;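 active means z-score under -3 and OD600 up to 0.15 on both plates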;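 further: plate controls were untreated wells for no effect and antibiotic for full effect; wells of about 80 µL received 100 nL stock; the first replicate is given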
# PrP UTR inh: suppresses PrP 5' UTR mRNA reporter expression | cell-based PrP 5' UTR mRNA reporter, plate reader | 340,000 tested, 0.35% active | inhibition, % (test concentration not listed) | AID 488862;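 active means every replicate at 50% or more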;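 further: 0 = median of the neutral control wells; tested in H4 reporter cells; numbers are from one replicate; inactives centre near -14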
# Sa RN4220 lethal: kills Staphylococcus aureus RN4220; inhibition, % (test concentration not listed); AID 1259311; 330,000 tested, 0.33% active; S. aureus RN4220 growth, OD600, 16 h;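 active means z-score of -3 or lower and OD600 up to 0.18 on both plates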;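 further: plate controls were untreated cells for no effect and reference antibiotic for full effect; stock transfer was 100 nL into about 80 µL; one replicate is shown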
# Mtb hypoxia rep growth: further read-out of Mtb hypoxia rep, marked with its call; growth inhibition, %; measured here: M. tuberculosis growth (absorbance);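 0% = vehicle and 100% = reference antibiotic; read after six days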
# Active calls of the source: *; u = inconclusive; x = not tested or not shown; & = joins results of further samples.
SMILES,Autofluor counter,BJeLR viability,Mtb hypoxia rep,Mtb hypoxia rep growth,ugtP null kill,PrP UTR inh,Sa RN4220 lethal
Cc1cc(C)c2c(n1)nn1c(NCCCN(C)C)cc(C)nc21,5562,23,-2,9,-9,-12,4.4
COc1ccc(/C(C)=N/Nc2nc3ccccc3nc2C)cc1,5471,4,x,x,x,-31,x
CCN(CC(=O)Nc1c(F)cccc1F)C(=O)c1ccc(C2SCCS2)cc1,u,0,7,2,-2,-12,-1.3
COc1ccc(OC)c(C=NNC(=O)c2c(C)nc3cc(C)ccn23)c1,x,x,-1,-8,7,x,-0.2
COc1ccc(-n2c(O)c(C(C)=NCc3ccco3)c(=O)[nH]c2=O)cc1,u,1,3,6,-1,-5,-1.0
COc1ccc(CNC(=O)C2=C(C)C(=O)OC23CCC(C)CC3)cc1 (centres undefined),6272,-9,0,-2,4,6,-15
CCOC(=O)C(O)(c1ccc(N)c(OC)c1)C(F)(F)F (centres undefined),2941,1,x,x,-1,-16,-2.1
COC(=O)c1cc(=O)n(Cc2ccc(OC)cc2)c(=NCc2ccc(OC)cc2)s1,2173,9,6,9,2,-20,3.3
Cc1[nH]c2nc3ccccc3n2c(=O)c1CCC(C)C,3559,-2,2,9,5,-21,2.1
CC1CCCN(C(=O)COc2ccc(NC(=O)c3cccs3)cc2)C1 (centres undefined),4104,4,19,7,0,-18,6.3
Cc1cc(N2CCC(C)CC2)nc(NCc2ccccc2)n1,2766,1,-29,6,-13,-15,-2.2
CC1CN(C(C)CO)C(=O)c2cccc(NS(=O)(=O)c3ccc(F)cc3)c2OC1CN(C)C(=O)Nc1ccc2c(c1)OCO2 (centres undefined),x,x,-1,7,-5,x,-1.6
CC1CCCN(C(=O)c2cccc(S(=O)(=O)N3CCCc4ccccc43)c2)C1 (centres undefined),x,9,2,-1,-2,-9,9.0
CCn1c(SCC(=O)Nc2nccs2)nnc1-c1ccc(C)cc1,u,5,3,18,1,-18,3.5
O=C(NCC1COc2ccccc2O1)c1cccs1 (centres undefined),6114,4,2,-21,5,-26,1.9
O=[N+]([O-])/C=C1\NCCN1Cc1ccc(Cl)nc1,3504&2065,-9&-3,-2,9,-2,-12&-8,-0.7
C/C(=N\NC(=O)c1ccccc1O)C1C(=O)c2ccccc2C1=O,5989,5,x,x,x,-45,x
COc1ccc2cc(C(=O)O)ccc2c1,u,7,14,0,43,-9,2.6
CC(=O)c1cnc(SCc2ccc(Cl)cc2)nc1C,3398,4,9,7,-4,-39,7.2
OC1(c2cccnc2)CCN(Cc2nnnn2C2CCCCC2)CC1,x,-4,x,x,3,-21,-0.3

# The list goes on, overlapping the part above by 2 compounds.
SMILES,Autofluor counter,BJeLR viability,Mtb hypoxia rep,Mtb hypoxia rep growth,ugtP null kill,PrP UTR inh,Sa RN4220 lethal
CC(=O)c1cnc(SCc2ccc(Cl)cc2)nc1C,3398,4,9,7,-4,-39,7.2
OC1(c2cccnc2)CCN(Cc2nnnn2C2CCCCC2)CC1,x,-4,x,x,3,-21,-0.3
O=C(NCc1ccccn1)c1ccc(COc2ccc(Cl)cc2)o1,10904,1,5,6,11,0,2.5
Cc1ccc(-n2nc(C)c3c(C)onc3c2=O)cc1,4536,-11,0,13,1,-21,3.8
CCC(C)C(=O)Nc1nnc(SCC(=O)NC(C)(C)C)s1 (centres undefined),4216,7,8,8,6,4,0.7
CCCCNc1c(-c2cccc(-c3ccc(OC)cc3)c2)nc2cc(C)ccn12,3716,x,11,2,9,-10,2.3
CC(NC(=O)c1ccccc1NC(=O)c1ccco1)c1ccccc1 (centres undefined),7946,-1,8,0,-5,-11,7.2
c1ccc2oc(-c3[nH]ncc3CN(Cc3ccncc3)CC3CCCO3)cc2c1 (centres undefined),2149,-3,6,2,8,-82,3.5
O=C1c2ccccc2C(=O)N1CCCc1nc(-c2ccccn2)no1,4378,-7,9,12,3,-17,2.9
CCCS(=O)(=O)N1CCCC(C(=O)NCCc2ccc(Cl)cc2)C1 (centres undefined),3267,-15,9,3,7,-24,3.7
CCC(C(=O)Nc1c[nH]c(=O)[nH]c1=O)c1ccccc1 (centres undefined),2622,-4,x,x,8,-25,4.1
CSCC[C@H](NC(=O)OC(C)(C)C)C(=O)NN=Cc1cccc2cccnc12,x,x,-4,5,-6,x,-3.6
Cc1cccc(N(CC(O)CN2CCOCC2)S(=O)(=O)c2ccccc2)c1 (centres undefined),5297,-1,6,4,6,-14,6.0
CC(C)Nc1nc(NC(C)C)nc(SCC(N)=O)n1,2609,-7,-2,3,-1,-21,-1.0
COc1ccccc1C1CC(c2ccc(Cl)cc2)Nc2ncnn21 (centres undefined),4711,-6,x,x,-9,-9,-3.8
COC(=O)c1cc(S(=O)(=O)N2CCC(c3cc(OC)ccc3OC)C2)c[nH]1 (centres undefined),6294,14,13,5,7,-11,4.7
COc1ccc(CNC(=O)CCCC2=NS(=O)(=O)c3ccccc3N2)cc1,4423,-1,-1,4,5,-2,1.9
CCN(CC)C(=S)Nc1ccc(C(=O)OC)cc1,7922,7,-8,2,-15,52,-5.7
CC(=N)c1c(O)c2ccccc2oc1=O,4215,-9,-8,-20,1,-15,1.0
COc1cc(/C=C/C(=O)O)ccc1O,5977,-3,x,x,-13,-5,4.8
O=C1/C(=C/c2cccc(Cl)c2)SC(=S)N1CCC(=O)N1CCCCC1CCO (centres undefined),5484,-3,16,7,-6,-37,0.3
CCOc1cc(CNCc2ccccc2)ccc1OCC(=O)NC1CCCCC1,5953,-1,15,-10,-3,-7,1.7

# Looked up by compound from the list above (four):
SMILES,Autofluor counter,BJeLR viability,Mtb hypoxia rep,Mtb hypoxia rep growth,ugtP null kill,PrP UTR inh,Sa RN4220 lethal
Cc1cccc(N(CC(O)CN2CCOCC2)S(=O)(=O)c2ccccc2)c1 (centres undefined),5297,-1,6,4,6,-14,6.0
CC(NC(=O)c1ccccc1NC(=O)c1ccco1)c1ccccc1 (centres undefined),7946,-1,8,0,-5,-11,7.2
CC(=N)c1c(O)c2ccccc2oc1=O,4215,-9,-8,-20,1,-15,1.0
O=C(NCc1ccccn1)c1ccc(COc2ccc(Cl)cc2)o1,10904,1,5,6,11,0,2.5

# Later entries.
SMILES,Autofluor counter,BJeLR viability,Mtb hypoxia rep,Mtb hypoxia rep growth,ugtP null kill,PrP UTR inh,Sa RN4220 lethal
Cc1cccc(NC(=O)CSc2nnc(-c3ccc(S(=O)(=O)N4CCOCC4)cc3)n2C)c1,16637*,4,10,10,1,-11,-2.0
COc1cc(OC)cc(C(=O)Nc2ccc3c(c2)CCCN3C(=O)c2cccs2)c1,4403,0,6,-4,4,-20,-2.2
CCN(CC(=O)Nc1ccccc1C(F)(F)F)C(=O)c1cc(S(=O)(=O)N(C)C)ccc1N1CCCC1,5625,-4,3,9,4,-16,-1.2
COc1cc(NS(=O)(=O)c2ccc(N=Cc3c(C)[nH]n(-c4ccccc4)c3=O)cc2)nc(OC)n1,10184,-2,6,21,71,-17,4.0
CC(=O)Nc1ccc(S(=O)(=O)NCCc2cc3ccc(C)c(C)c3[nH]c2=O)cc1,5374,-3,3,10,6,-18,-0.2
N#CCOC(=O)[C@H](Cc1c[nH]c2ccccc12)NS(=O)(=O)c1ccc(Cl)cc1,3727,7,6,9,-2,-13,6.5
Cc1cc2c(ccc3[nH]onc32)n1,6529,1,x,x,x,4,x
CCOc1ccc(NCc2cc3cc(OC)ccc3[nH]c2=O)cc1,4967,-5,-3,3,-3,-20,2.0
CCOc1ccc(NC(=O)c2ccc(NC(=O)COC(=O)c3ccc(NC(=O)CC#N)cc3)cc2)cc1,4427,3,x,x,x,-32,x
O=C(CCCc1ccccc1)NCCCN1CCOCC1,22241*,1,10,4,11,-11,2.8
Fc1cccc2sc(Nc3nc4cc5c(cc4s3)OCCO5)nc12,2190,-17,x,x,x,-84,x
COc1ccccc1OCC(=O)Nc1ccc(CSc2ccccc2)cc1C,3074,-6,3,4,25,-3,12
O=C(COC(=O)c1ccccc1[N+](=O)[O-])c1ccc(C2CCCCC2)cc1,3132,6,x,x,31,-12,5.3
CCN(Cc1ccccc1)S(=O)(=O)c1ccccc1Br,3835,x,3,3,16,9,4.2
COc1ccc(CCN(C)C(=O)CSc2nnc(-c3ccco3)o2)cc1OC,5958,-13,7,15,1,-8,0.4
O=C(O)COc1ccccc1C=NNC(=O)CSc1nnc(SCc2ccc(Cl)cc2)s1,x,x,3,-3,-1,x,4.7
CCC(C)CN1CCC(CO)(Cc2ccccc2Cl)CC1 (centres undefined),4761,-2,2,14,4,-17,0.2
CN(C)C(=O)c1ccc(-n2cccn2)nc1,4612,0,12,6,6,-10,6.9
COc1ccc(N2C(=O)NC(=O)/C(=C\c3ccc([N+](=O)[O-])s3)C2=O)cc1,3907,-1,4,-5,7,-5,7.8
CC(C)OC(=O)CSc1nnc(-c2ccccn2)n1C,17273*,-10,11,2,13,-14,7.5
CC(C)C(C)NC(=O)CN1C(=O)NC(C)(c2ccc3ccccc3c2)C1=O (centres undefined),3982,-11,0,-5,3,-13,3.0
CC(Oc1ccc(C#N)cc1)C(=O)NC1CCCC1 (centres undefined),3956,x,2,9,-5,-22,0.6
Cc1ccccc1-n1c(C)nc2sccc2c1=O,6722,0,3,7,6,-9,5.3
CCOC(=O)N1CCN(C(=O)c2c(-c3ccccc3Cl)noc2C)CC1,3114,-2,1,-5,11,-13,5.3
O=C(Cc1cc(=O)[nH][nH]1)N/N=C/C=C/c1ccccc1,3255,16&-1,x,x,x,-16,x
COc1ccc(-c2noc(N3CCC(C(=O)N(C)c4ccccc4C)CC3)n2)cc1,6021,11,-13,7,-5,-2,-1.2
COc1cccc(C=NNC(=O)CCn2c3ccccc3c3ccccc32)c1,x,x,12,-4,-10,x,2.9
CCOc1ccc(CC(=O)Nc2sc(Cc3ccccc3)c(C)c2C(N)=O)cc1OCC,23316*,-14,3,6,-10,-21,0.8
Nc1nonc1-n1nnc(C(=O)NN=Cc2ccc(OCc3ccccc3F)cc2)c1CNc1ccccc1,x,x,6,8,-10,x,5.8
CCc1ccc(C2CC(c3ccccc3)n3ncnc3N2)cc1 (centres undefined),6200,-7,x,x,5,-11,12
O=C(NCCC1CCCCN1S(=O)(=O)c1ccc(Cl)cc1)C(=O)NCc1ccncc1 (centres undefined),6459,13,5,-5,9,-1,3.3
CCOc1cc(C(=O)Nc2ccc(N3CCOCC3)cc2)cc(Br)c1OC,4343,7,-2,13,2,-19,15
CCOc1ccc2oc(C(=O)OCC(=O)NC(=O)NC)c(C)c2c1,u,3,6,1,4,-17,9.8
O=C(C=Cc1ccccc1)N1CCN(CC(O)COc2ccccc2)CC1 (centres undefined),x,x,10,3,7,x,3.7
CCOC(=O)[C@@H]1[C@H]2COc3cc(OC)ccc3[C@@H]2N2C(=O)N(c3ccccc3)C(=O)[C@]12C,4277,x,9,4,7,-15,-15
CCCOc1ccc(C(CC(=O)O)NC(=O)CC(c2ccccc2)c2ccccc2)cc1 (centres undefined),4465,-1,5,12,6,-13,-4.5
COc1ccc(C#Cc2c(-c3ccccc3)n(C)c3ccccc23)cc1,4402,x,10,-2,-7,1,2.8
O=C(N/C=N/OCc1cccc(C(F)(F)F)c1)N1OC[C@@H]2COc3ccc4ccccc4c3[C@@H]21,2421,5,x,x,x,-5,x
COc1cc(/C=C/c2ccc3cccc([N+](=O)[O-])c3n2)ccc1OCC#N,2598,0,x,x,x,-28,x
CN(CC(=O)N1CCCC1)S(=O)(=O)c1cc(Cl)ccc1Cl,22425*,-8,8,2,-4,-5,-1.6
CN(C)S(=O)(=O)c1cc(C(=O)NCC2CCCO2)c(Cl)cc1Cl (centres undefined),9255,-6,12,5,2,-22,7.8
Cc1cccc(N(CC(=O)NC2CCCC2)C(=O)CCC(=O)Nc2nc(C)cs2)c1,3566,-8,-3,4,4,-16,1.8
O=c1cc2ncc(-n3cc([N+](=O)[O-])cn3)cn2[nH]1,4389,10,-4,3,-11,-18,1.0
CN(C)C(=O)CN1CCN(Cc2nc(CC3CC3)no2)CC1,3364,-3,12,-2,10,-10,2.0

# An unsorted share of the library (roughly 4% active in at least one column).
